LANA-H2A inh – blockers of LANA interaction with H2A/H2B – biochemical, FP readout, HTS, primary screen; inhibition, % (concentration not given with the values); 0.6% of 320,000 active; cell-free LANA-H2A/H2B peptide, fluorescence polarization; in the data active = inhibition mostly above about 10%, no sharp cut-off; inactive = mostly below about 6.7%;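 also: stock transfer was 7.5 nL into about 10 µL; 0% = median of vehicle wells and 100% = median of positive control wells; one replicate is shown; the record names a cut of 25% in any replicate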
Target sequence (Q9QR71 whole entry, looked up): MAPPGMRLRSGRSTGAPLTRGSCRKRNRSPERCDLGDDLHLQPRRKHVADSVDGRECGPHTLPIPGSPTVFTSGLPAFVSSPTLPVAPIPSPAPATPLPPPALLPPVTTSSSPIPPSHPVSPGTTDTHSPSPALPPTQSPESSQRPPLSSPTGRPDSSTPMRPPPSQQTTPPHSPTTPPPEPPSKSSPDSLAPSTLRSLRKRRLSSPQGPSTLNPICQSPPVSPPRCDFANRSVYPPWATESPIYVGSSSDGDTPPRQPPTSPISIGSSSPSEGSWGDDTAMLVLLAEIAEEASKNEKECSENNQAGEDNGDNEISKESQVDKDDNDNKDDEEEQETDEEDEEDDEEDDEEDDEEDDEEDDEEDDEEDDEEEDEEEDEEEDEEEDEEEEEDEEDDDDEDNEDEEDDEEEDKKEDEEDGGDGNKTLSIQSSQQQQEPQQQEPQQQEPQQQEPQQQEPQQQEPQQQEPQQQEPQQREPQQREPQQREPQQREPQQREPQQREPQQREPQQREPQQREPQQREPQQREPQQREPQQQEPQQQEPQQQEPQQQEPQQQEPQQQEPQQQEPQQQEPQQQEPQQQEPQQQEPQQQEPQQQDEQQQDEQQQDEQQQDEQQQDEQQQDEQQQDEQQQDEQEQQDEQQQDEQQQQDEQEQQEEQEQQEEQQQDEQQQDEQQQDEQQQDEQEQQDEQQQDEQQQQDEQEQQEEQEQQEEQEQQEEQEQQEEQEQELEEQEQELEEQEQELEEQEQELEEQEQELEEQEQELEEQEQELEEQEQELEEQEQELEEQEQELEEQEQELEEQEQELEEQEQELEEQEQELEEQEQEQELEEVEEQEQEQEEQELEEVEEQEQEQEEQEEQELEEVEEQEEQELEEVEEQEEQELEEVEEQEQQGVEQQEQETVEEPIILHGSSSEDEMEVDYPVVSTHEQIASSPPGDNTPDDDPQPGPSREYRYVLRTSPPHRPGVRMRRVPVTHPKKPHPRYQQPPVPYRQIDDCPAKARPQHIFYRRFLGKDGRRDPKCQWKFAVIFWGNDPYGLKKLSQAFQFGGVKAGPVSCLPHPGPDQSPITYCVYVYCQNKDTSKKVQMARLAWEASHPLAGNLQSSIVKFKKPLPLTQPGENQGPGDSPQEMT
Calb FLC – C. albicans growth inhibition with fluconazole, primary screen, CaCi-2 strain, Alamar Blue fluorescence; C. albicans CaCi-2 (fluconazole-resistant clinical isolate) + fluconazole, 48 h; AID 1979, 2009; growth inhibition, % (no concentration beside the values); 0.57% of 300,000 active;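 active = most replicates above 75%; inconclusive = exactly half above 75%; inactive = most below 75%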;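 also: all wells also contain fluconazole at 8 µg/ml as a sub-toxic cotreatment; 0% = median of DMSO wells and 100% = median of geldanamycin control wells; wells of about 8 µL received 7.5 nL stock; the first replicate is given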
A1 inh – caspase 3/7 activation in MEF A1-2A-BIM cells, primary screen, A1 inhibitor project, cell-based, luminescence, HTS | Caspase-Glo 3/7 luminescence, 3 h; percent of clofoctol response, vehicle zero | caspase activation, % (concentration not given with the values) | 0.066% of 330,000 active;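 active = over half of replicate activation scores above 10%, or exactly half above 10 with the replicate mean above 10; inconclusive = replicate mean below 10 yet half the replicates above 10; inactive = over half of replicates below 10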;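 also: wells of about 30 µL received 50 nL stock; many hits fall short of the cut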
RanGTP-Impb inh – inhibitors of RanGTP-importin-beta interaction, primary screen, biochemical, FRET, CFP-Ran, YFP-importin-beta, homogeneous; AID 2216, 2009; 1.1% of 300,000 active; inhibition, % (concentration not given with the values); Ran GTPase (GTP-bound) - importin-beta complex; cell-free CFP-Ran/YFP-importin-beta FRET ratio;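 active = most replicates above 15%; inconclusive = exactly half above 15%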;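 also: 0% = DMSO wells and 100% = Ran loaded with GDP instead of GTP; wells of about 40 µL received 100 nL stock; the first replicate is given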
Beta cell apopt – inhibitors of cytokine-induced beta cell apoptosis, primary screen, luminescence. protection from apoptosis, % (concentration not given with the values). INS-1E cytokine-induced death, ATP luminescence, 48 h; percent of positive-control rescue, neutral wells zero. 0.8% of 300,000 active. AID 435005, 2010;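 active = all replicates at 75% or more, or half of them and the mean; inconclusive = half reach 75% but not the mean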;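 also: 0% = cytokine-treated negative control wells and 100% = positive control rescue; higher means more ATP so stronger rescue from cytokine killing; wells of about 40 µL received 100 nL stock; the first replicate is given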
Vif TR-FRET – inhibitors of Vif binding to APOBEC3G peptide, primary screen, biochemical, TR-FRET, GST-Vif 1-94, biotin-A3G peptide, dose response retest (AID 1117319). Virion infectivity factor (Human immunodeficiency virus type 1 group M subtype B (isolate …. inhibition, %, or IC50 in µM where a hit was titrated. 0.57% of 260,000 active. TR-FRET GST-Vif / biotin-A3G peptide binding; higher % means a stronger effect; test concentration not given here; strong numbers were not always called active;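 active = above the screen mean plus three standard deviations and confirmed in dose response; inconclusive = results disagree or hit not tested in dose response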;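 also: Vif residues 1-94 fused to GST binding biotinylated APOBEC3G peptide 110-148; 0% = full assay without inhibitor and 100% = GST in place of GST-Vif; retest series ran down from 100 µM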
T cruzi repl – inhibitors of intracellular T. cruzi growth, primary screen, luminescence, NIH3T3 host cells | T. cruzi beta-gal in NIH3T3, 90 h | inhibition, % (concentration not given with the values) | 1.4% of 300,000 active | AID 1885, 2009;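 active = mean inhibition across valid replicates above about 55%, limit read from the data; inconclusive = mean below that limit but half or more replicates reach it; inactive = mean below it, under half of replicates reach it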;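 also: signal also drops with host cell toxicity which is not excluded here; 0% = plate median of DMSO wells and 100% = zero luminescence signal; higher percent means less beta-gal luminescence so fewer parasites; stock transfer was 50 nL into about 50 µL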
MLL AF4-AF9 inh – inhibitors of AF4 peptide binding to AF9, primary screen, biochemical, AlphaScreen, biotin-AF4 peptide, FLAG-AF9, single point | 0.47% of 350,000 active | Protein AF-9 (Homo sapiens), P42568 | inhibition, % at 10 µM;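 active = every replicate reaching a set inhibition limit, whatever the replicate mean, cut at about 25% in these data; inconclusive = mean inhibition reaches that limit but some replicates miss it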;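 also: 0% = plate neutral control median and 100% = total signal loss; the record names both 10 and 1 µM as test concentration; the first replicate is given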
Active calls of the source: *; i = inactive; u = inconclusive; x = no result given; & = joins results of further samples. Not all compounds are listed; the hit share may differ from the screen's.

SMILES | LANA-H2A inh | Calb FLC | A1 inh | RanGTP-Impb inh | Beta cell apopt | Vif TR-FRET | T cruzi repl | MLL AF4-AF9 inh
CC(C)c1ccc(-n2c(O)c(C=NC(CCS(C)=O)C(=O)O)c(=O)[nH]c2=S)cc1 (centres undefined) | 6.7 | -1.6 | 0.7 | 2.0 | 2.5 | 4.6% | -10.4 | -11.1
O=C(CN1CCCCC1)Nc1ccc(Br)cc1C(=O)c1ccccc1Cl | 3.4 | 33.9 | 0.3 | -0.9 | x | -5.7% | 33.8 | x
CCOC(=O)c1cn2nc(OP(=S)(OCC)OCC)cc2nc1C | -4.3 | 5.6 | -1.1 | x | -7.2 | 18.0% | x | x
CC(=O)c1cccc(NC2=NCC(C)S2)c1 (centres undefined) | -3.3 | -6.4 | -0.1 | 7.9 | 1.0 | u | 3.2 | 7.1
O=c1[nH]c(=S)n(-c2ccccc2)c(O)c1C=NCCN1CCNCC1 | 3.3 | -2.5 | 0.0 | -1.6 | -2.5 | -0.5% | -7.6 | -0.3
COc1ccc(OCCOc2cccc(C=C3C(=O)NC(=O)NC3=O)c2)cc1 | -3.3 | 7.4 | -9.1 | 2.3 | -7.6 | x | -8.5 | x
CCN(CC)C(=O)c1ccc(NC(=O)c2cccc(S(=O)(=O)N3CCN(Cc4ccccc4)CC3)c2)cc1 | 2.5 | -3.8 | -0.2 | x | 38.4 | 2.5% | 12.6 | -36.1
Cc1ccc(-n2c(-c3ccc([N+](=O)[O-])cc3)nc3ccccc3c2=O)cc1 | -1.9 | 10.2 | 0.4 | 3.7 | 5.6 | 7.7% | 11.5 | 14.6
CC1C2Cn3c(nc4ccccc43)C1N(C)O2 (centres undefined) | -1.0 | -7.1 | -0.1 | u | -3.5 | x | 5.5 | -1.7
CCN1CCN(C(=O)COc2ccc(S(=O)(=O)N3CCOCC3)cc2C)CC1 | 5.1 | 1.1 | 0.2 | 1.8 | -4.8 | -2.2% | -4.3 | -1.5
OC(c1ccccc1)(c1ccccc1)C1CCCN1 (centres undefined) | -0.8 | 4.0 | 0.3 | 6.7 | -8.7 | -5.1% | -6.6 | -29.5
Cc1ccc(Cn2nnnc2CN2CCC(n3nnc4cc(C(F)(F)F)ccc43)CC2)cc1 | -2.6 | 5.4 | -1.4 | 3.3 | 19.2 | -2.0% | 34.4 | x
Fc1ccc2c(c1)nnn2C1CCN(Cc2nnnn2C2CCCCC2)CC1 | 1.6 | 1.0 | -0.7 | -7.9 | 1.3 | -1.4% | 25.4 | x
Cc1c(NP(=S)(C(C)(C)C)C(C)(C)C)c(=O)n(-c2ccccc2)n1C | 0.1 | -17.6 | -0.4 | 6.0 | 3.0 | -3.9% | 0.6 | -2.3
O=S(=O)(c1ccccc1)N1CN2CCN(C2)C1 | -0.4 | 1.0 | 0.1 | 1.7 | -1.7 | -3.7% | -15.9 | x
CCCCn1c(O)c(C(CC)=NCc2ccc(F)cc2)c(=O)[nH]c1=O | -1.7 | 15.8 | -0.4 | 2.6 | 0.1 | 2.4% | 18.4 | x
CN1CCN(Cc2ccc(OC(F)(F)F)cc2)CC1 | 4.4 | 0.0 | 0.1 | 2.9 | -2.9 | -6.8% | 29.9 | x
CCC(=NCC1CCCO1)c1c(O)n(-c2ccc(Cl)cc2)c(=O)[nH]c1=O (centres undefined) | 3.5 | -5.1 | 2.0 | -4.6 | -2.5 | 1.1% | -10.1 | x
COc1ccc2c(c1)[C@@]13CCC=C[C@H]1[C@@H](C2)NCC3 | -1.5 | x | -0.4 | x | 0.8 | x | x | -7.5
CC(=O)O[C@@]12CO[C@@H]1C[C@H](OC1OCC(O)C(O)C1O)[C@@]1(C)C(=O)[C@H](O)C3=C(C)[C@@H](OC(=O)[C@H](O)[C@@H](NC(=O)c4ccccc4)c4ccccc4)C[C@@](O)([C@@H](OC(=O)c4ccccc4)C12)C3(C)C (some centres undefined) | 0.2 | -0.5 | 0.9 | -4.6 | 11.5 | x | 6.4 | -13.8
O=C(C1CCCN(c2nnc(-n3cccc3)s2)C1)N1CCC2(CC1)OCCO2 (centres undefined) | -0.9 | -12.5 | 0.8 | 0.7 | -0.7 | 7.3% | -8.3 | x
C[C@]12CCC(OC(=O)CCC(=O)O)CC1=CCC1C2CC[C@]2(C)C(=O)CCC12 (some centres undefined) | 2.6 | 20.5 | u | -0.5 | -3.5 | -2.4% | -2.0 | -1.9
O=C1NC(=O)N(Cc2ccccc2)C(=O)/C1=C/c1cnc(-c2ccccc2)nc1 | -5.2 | -9.4 | -0.2 | -1.6 | 0.5 | 26.4% | -0.9 | -2.2
CNC(C(=O)c1ccccc1)C(OC)c1ccc(C)cc1 (centres undefined) | -2.0 | -7.6 | -0.2 | -3.4 | -7.6 | -9.7% | -11.9 | x
CCCCC(=O)C1C(=O)NC(=O)NC1=O | 2.2 | -6.6 | 0.7 | -5.0 | -2.6 | 1.0% | -15.9 | x
Remaining list, next part
SMILES | LANA-H2A inh | Calb FLC | A1 inh | RanGTP-Impb inh | Beta cell apopt | Vif TR-FRET | T cruzi repl | MLL AF4-AF9 inh
COc1ccccc1NC(=O)COC(=O)c1cn(C)c2ccccc12 | i | x | -0.3 | x | -8.4 | 10.8% | x | 1.0
Cc1ccc(-c2nc3ccccc3c(=O)n2-c2cc(C)ccn2)cc1 | -1.0 | 2.0 | -0.8 | 0.1 | 0.8 | 9.2% | -1.3 | x
O=c1[nH]c(=O)n(CCC2=CCCCC2)c(O)c1/C=N/Nc1ccccc1 | -0.2 | -25.2 | -1.2 | 1.2 | 0.4 | 8.8% | 30.9 | -0.7
COC(=O)C1=C(c2cccc(OCc3ccccc3)c2)C[C@@H]2CC[C@H]1N2C(=O)NCc1ccc(Cl)cc1 | -1.2 | x | -0.6 | x | -3.5 | x | x | -13.0
CCOc1cc(-c2nc3c(C)cccn3c2NCC2CCCO2)ccc1O (centres undefined) | -1.6 | -6.7 | 0.2 | 10.3 | 3.7 | -6.2%&-2.6% | -3.3 | x
COC(=O)C1=C(c2c(C)noc2C)C[C@@H]2CC[C@H]1N2C(=O)NCCOc1ccccc1Cl | 0.0 | x | 1.2 | x | -0.9 | x | x | -1.1
Cn1c(N2CCNCC2)nc2ccccc21 | 1.8 | -3.3 | 0.0 | u | -16.8 | -0.5% | 2.0 | -2.4
COc1cc(OC)c(OC)cc1CNCCc1cccc(F)c1 | -5.4 | -0.8 | 1.1 | -0.5 | -5.5 | -1.7% | 34.8 | 2.0
CC(C)CCn1c(=O)c(C(=O)NCc2ccco2)c(O)c2ccccc21 | -11.9 | 0.1 | -0.2 | 4.2 | -5.5 | -11.3% | 3.6 | -4.1
COc1ccc(-n2c(-c3ccccc3Br)nc3ccccc3c2=O)cc1 | -1.1 | -5.0 | 0.0 | -2.5 | 0.0 | -4.2% | -6.1 | -0.2
CC1=C(C/C(C)=C/c2ccccc2)/C(=C/CO)[C@H](O)[C@](C)(O)C12CC2 | -1.5 | 11.2 | -0.1 | -1.7 | -5.4 | x | -1.9 | 1.2
COCCNC(=O)c1c(NC(=O)c2ccc(Br)o2)n(Cc2ccccc2)c2nc3ccccc3nc12 | 0.4 | -12.1 | -0.1 | 58.4* | -10.5 | 2.9% | -3.2 | x
Clc1cc(Cl)cc(NC2=NCCS2)c1 | -3.4 | 4.2 | -1.3 | 1.9 | 3.2 | x | x | -2.5
COc1ccc(CCn2c(O)c(C=Nc3ccc(NC(C)=O)cc3)c(=O)[nH]c2=O)cc1OC | -1.0 | -0.4 | 1.0 | -10.8 | x | -30.4% | -10.6 | -1.2
CCN1CCN(c2ccc(N)cc2)CC1 | -0.9 | -5.9 | -0.4 | 0.1 | 1.7 | u | -6.7 | 81.5*
O=C1NC(=O)N(c2ccc(F)cc2)C(=O)/C1=C/c1ccsc1 | 14.5 | 9.4 | 0.3 | 0.7 | -4.5 | 19.0% | 2.6 | -1.1
C=CCn1c(O)c(C(C)=Nc2ccc3c(c2)CCC3)c(=O)[nH]c1=O | 1.9 | 28.9 | 0.0 | -2.8 | 2.6 | 7.3% | 10.4 | -2.0
O=C1/C(=C/c2cc3c(cc2Cl)OCO3)N2CCC1CC2 | 1.8 | -19.5 | -0.4 | 1.5 | -5.9 | -0.2% | 3.3 | x
CN1CCN(c2nc(N)c(Br)c(Cl)n2)CC1 | -2.4 | 1.7 | 0.4 | -1.9 | x | x | 30.5 | -0.5
C1CC2NCCC3NCCC(N1)N32 (centres undefined) | -3.7 | x | 0.9 | 1.7 | -6.8 | -1.8% | -0.3 | 3.0
COc1ccc(NC(=O)[C@@H](NC(=O)N2C[C@H]3C[C@@H](C2)c2cccc(=O)n2C3)C(C)C)cc1 | -2.9 | -1.8 | -0.6 | -0.1 | -4.6 | x | -0.3 | -0.8
O=C(/C=C/c1ccc(F)cc1)NC(=S)N1C[C@H]2C[C@H](C1)c1cccc(=O)n1C2 | 1.0 | -0.5 | -0.5 | 3.0 | -1.2 | x | -2.6 | -2.4
c1ccc2c(CCNC3CCCCC3)c[nH]c2c1 | -21.0 | -5.5 | -0.2 | -1.8 | -2.6 | -1.5% | -5.5 | 3.9
CCCC/C(=N/O)c1c(C)[nH]c2ccccc12 | -2.7 | -1.3 | 0.5 | -0.6 | -1.7 | -1.9% | -9.8 | 3.2
CN1CN=C(N[N+](=O)[O-])N(Cc2ccco2)C1 | -2.0 | -1.5 | 0.8 | 5.7 | -2.2 | -9.7% | 3.4 | -4.8
(continued)
SMILES | LANA-H2A inh | Calb FLC | A1 inh | RanGTP-Impb inh | Beta cell apopt | Vif TR-FRET | T cruzi repl | MLL AF4-AF9 inh
Cc1ccc2cc(CNCCc3ccccc3C)c(=O)[nH]c2c1 | 1.4 | -1.3 | 0.1 | -0.5 | -2.9 | x | 21.3 | 0.7
Cc1cccc(CN2CCN(c3ccc(Cl)cc3)CC2)c1 | 1.7 | -35.9 | 0.4 | 0.0 | -1.6 | -1.5% | 2.7 | 4.9
COc1cccc(C(=O)N2C[C@H]3C[C@@H](C2)c2cccc(=O)n2C3)c1 | -6.6 | -6.6 | 0.1 | -3.3 | -2.5 | x | -28.4 | -2.4
Cc1ccc(CN(Cc2ccccc2)C(=S)NCC(=O)N2CCC3(CC2)OCCO3)o1 | 1.8 | -4.9 | -0.1 | 1.8 | -4.4 | x | 5.6 | 7.6
Cc1cc(OCC(=O)NC(Cc2ccc(Cl)cc2)C(=O)O)c2c3c(c(=O)oc2c1)CCCC3 (centres undefined) | 3.8 | 1.7 | 0.8 | -0.4 | -5.0 | x | 3.9 | 1.4
COc1ccc(OC)c(-n2c(O)c(C=NCCN3CCNCC3)c(=O)[nH]c2=S)c1 | 3.9 | -7.3 | -0.3 | -5.2 | -1.9 | -5.2% | -9.7 | -0.6
Cc1sc(-n2c(C)cc(C=C3C(=O)NC(=O)NC3=O)c2C)c(C#N)c1C | 16.6* | 20.8 | -0.4 | 0.6 | -6.0 | 9.4% | 1.2 | -1.7
